Marburg entry inh: Marburg virus entry inhibition; Marburg virus pseudotyped entry inhibition, cell reporter; control for the full effect not named in the record; about a third of the inactives were read at about 46 µM; Potency, µM (titrated, usually from 37.8 µM), for inactives: at the top dose activity change, negative = inhibition, hits mostly inhibitors; hit rate 1.8% among 300,000; AID 540276; active = well fitted inhibition curve with a large enough effect; inconclusive = small, poorly fitted or top-dose-only effect, or effect the other way; inactive = flat fitted curve, though single readings scatter; tested in HEK293 cells; about a fifth of its hits are not listed in these tables; also: % is scaled to controls: 0 for no effect and ±100 for the full control effect; luciferase read-out
SARS PLpro yeast: blocks SARS-CoV papain-like protease in a yeast assay; Potency, µM (series often up to 32.9 µM), inactives show at the top dose activity, positive = growth rescue; AID 485353; hit rate 0.19% among 330,000; S. cerevisiae expressing SARS-CoV PLpro, growth rescue; control for the full effect not named in the record; active means well fitted rising curve with a large enough effect; inconclusive means small, poorly fitted or top-dose-only effect; inactive means no such curve, though single readings can be large or run the other way; also: 0% is about no effect; nearly all actives have a fitted effect of over 55% in size; growth read by luminescence after 48 h
RE007 growth inh: less growth of the S. pombe RE007 Vpr strain. hit rate 0.21% among 360,000. S. pombe RE007 Vpr strain, BacTiter-Glo ATP luminescence, 24 h; control for the full effect not named in the record. Potency, µM (doses to about 92.2 µM), inactives show at the top dose activity change, negative = less growth. AID 651644; active = well fitted falling curve with a large enough effect; inconclusive = small, poorly fitted or top-dose-only effect; inactive = no such curve, though single readings can be large or run the other way;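 also: % is scaled to controls: 0 for no effect and ±100 for the full control effect; nearly all actives have a fitted effect of over 50% in size; the assay follows cell death caused by Vpr and the record does not say whether a fall means rescue or toxicity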
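Fission yeast strain RE007, carrying one chromosomally integrated HIV-1 vpr copy, was seeded at OD 0.01 in PMG+AL medium with 23 nL pinned compound. After 24 h at 30 °C and 99% humidity, viability was read by BacTiter-Glo luminescence.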
NS1 function inh: inhibitors of influenza NS1 protein function; S. cerevisiae slowed by influenza A NS1, growth recovery by OD600; hit rate 0.4% among 270,000; Potency, µM (doses to about 46.1 µM), for the others: top-dose activity, positive = more growth; AID 2326; active means well fitted rising curve with a large enough effect; inconclusive means small, poorly fitted or top-dose-only effect; inactive means no such curve, though single readings can be large or run the other way; also: nearly all actives have a fitted effect of over 50% in size
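Recovery from NS1-induced slow growth read by OD600 in budding yeast switched to galactose assay medium (pH 6.0, -URA) at 1:100 dilution. Compound 23 nl per well; the matching strain lacking NS1 serves as control.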
Cruzain Triton: inhibitors of Trypanosoma cruzi cruzain with detergent | hit rate 0.43% among 200,000 | Potency, µM, without a hit: max response, negative = inhibition, most hits filed as inhibitors | purified cruzain, Z-FR-AMC fluorescence, 0.01% Triton | AID 1478;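 also: plate controls were neutral wells for no effect and buffer without enzyme for full effect; nearly all actives have a fitted effect of over 40% in size; top concentration of the series not given in the record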
Target sequence (P25779 123-467 limits assumed): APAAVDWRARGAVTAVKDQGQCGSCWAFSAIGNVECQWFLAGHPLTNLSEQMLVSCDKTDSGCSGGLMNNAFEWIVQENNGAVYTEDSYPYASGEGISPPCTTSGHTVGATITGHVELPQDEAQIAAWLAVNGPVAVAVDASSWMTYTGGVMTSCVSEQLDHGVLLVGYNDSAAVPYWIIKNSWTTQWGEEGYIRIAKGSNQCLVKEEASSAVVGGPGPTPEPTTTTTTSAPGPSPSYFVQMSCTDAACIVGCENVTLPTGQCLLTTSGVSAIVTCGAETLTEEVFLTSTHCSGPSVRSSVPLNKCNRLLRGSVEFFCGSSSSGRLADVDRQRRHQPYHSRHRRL
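Detergent-containing arm of a paired screen for aggregation-based inhibition: 0.01% Triton X-100 present. Cruzain at 1.5 nM cleaved 2 uM Z-FR-AMC at pH 5.5 with 5 mM DTT; AMC fluorescence gain over 60 s measured activity.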
LASV entry inh: inhibitors of Lassa virus binding or cell entry. hit rate 1.2% among 300,000. AID 540256. Potency, µM (series often up to 37.9 µM), inactives show top-dose activity change, negative = inhibition, actives largely listed as inhibitors. Lassa virus pseudotype entry inhibition, cell reporter; control for the full effect not named in the record; active means well fitted inhibition curve with a large enough effect; inconclusive means small, poorly fitted or top-dose-only effect, or effect the other way; inactive means flat fitted curve, though single readings scatter; tested in HEK293 cells; also: % is scaled to controls: 0 for no effect and ±100 for the full control effect; nearly all actives have a fitted effect of over 50% in size; luciferase read-out
Cruzain noTriton: inhibitors of Trypanosoma cruzi cruzain without detergent; purified cruzain, Z-FR-AMC fluorescence, no detergent; P25779; Potency, µM, without a hit: max response, negative = inhibition, actives largely listed as inhibitors; hit rate 2.3% among 200,000; AID 1476;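 also: plate controls were enzyme without inhibitor for no effect and buffer without enzyme for full effect; nearly all actives have a fitted effect of over 40% in size; top concentration of the series not given in the record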
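Detergent-free condition (0.00005% Triton X-100) in acetate buffer pH 5.5 with DTT. 1.5 nM enzyme and compound were pre-mixed 15 min, then 2 uM Z-FR-AMC substrate added; reaction progress from fluorescence change between first and third reads (60 s).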
2A StopGo: lowers the luciferase signal of an FMDV 2A StopGo reporter; human cells with a luciferase reporter of 2A StopGo recoding; control for the full effect not named in the record; Potency, µM (top dose mostly 57.9 µM), for inactives: at the highest dose signal change, negative = less light; hit rate 1.2% among 410,000; active = well fitted falling curve with a large enough effect; inconclusive = small, poorly fitted or top-dose-only effect; inactive = no such curve, though single readings can be large or run the other way; tested in HEK293T cells; also: % is scaled to controls: 0 for no effect and ±100 for the full control effect; nearly all actives have a fitted effect of over 45% in size; luciferase light after 4 h
Active calls of the source: *; & = joins results of further samples; [ ] = remark or other dose. Unless noted, calls follow the shape of the dose curve; as a rule, active = well fitted curve in the direction sought with a large enough effect; inconclusive = small, poorly fitted or top-dose-only effect, or another doubt; inactive = no such curve, though single readings can be large; an effect the other way counts as inactive or inconclusive. Potency is read from the fitted curve at half-maximal effect.

Cc1ccc(NC(=O)CN(c2ccc(C)cc2)S(=O)(=O)c2cccc3nonc23)cc1 was read as Marburg entry inh inconclusive, SARS PLpro yeast inconclusive, RE007 growth inh -3%, NS1 function inh inconclusive, Cruzain Triton -4.5%&-4.0%, LASV entry inh inconclusive, Cruzain noTriton -21%&-9% and 2A StopGo 22%&23%.
COc1ccccc1-n1c(SCC(=O)NC2CCCCC2)nc2c(c1=O)SCC2 was read as SARS PLpro yeast -2%, RE007 growth inh 3%, NS1 function inh 8%, Cruzain Triton 0.2%, Cruzain noTriton -3% and 2A StopGo -18%.
For CCn1c(-c2cccs2)nc2ccccc21 the results were Marburg entry inh 7%, SARS PLpro yeast -21%, RE007 growth inh -23%, NS1 function inh -26%, Cruzain Triton -0.3%, LASV entry inh 14%, Cruzain noTriton -13% and 2A StopGo 9%.
CC(NC(=O)CCCCCNC(=O)N1CCn2c1nc1ccccc12)c1ccccc1 (centres undefined) was read as SARS PLpro yeast 17%, RE007 growth inh -7%, NS1 function inh -19% and 2A StopGo -20%.
Screening Cc1cc(Br)ccc1NC(=O)CNC(=O)CSc1nccn1C returned Marburg entry inh inconclusive, SARS PLpro yeast -4%, RE007 growth inh -12%, LASV entry inh -3% and 2A StopGo 7%.
S=C(/N=c1/sccn1Cc1ccccc1)NC1CC1 was read as Marburg entry inh -14%[46.1 µM], SARS PLpro yeast -5%, RE007 growth inh 7%, NS1 function inh -37%, LASV entry inh inconclusive and 2A StopGo 5%.
Screening O=[N+]([O-])c1cc(Br)ccc1C[n+]1ccccc1 returned Marburg entry inh inconclusive, RE007 growth inh 1%, LASV entry inh 14% and 2A StopGo -8%.
For COc1ccc(CCC(=O)NC2CC(=O)N(c3ccccc3)C2)cc1 (centres undefined) the results were Cruzain Triton -0.1%, LASV entry inh 8%[46.1 µM], Cruzain noTriton 5% and 2A StopGo -15%.
Screening Cc1nnsc1C(=O)N/N=C/c1ccccc1 returned Marburg entry inh inconclusive, SARS PLpro yeast -32%, RE007 growth inh -10%, NS1 function inh -5%, Cruzain Triton -2.1%, LASV entry inh 1%, Cruzain noTriton -11% and 2A StopGo 2%.
`CC(C)(C)OC(=O)N1CCC(c2c(C(=O)NCc3cccs3)cnn2-c2cccc(F)c2)CC1` gave Cruzain Triton -7.3%, LASV entry inh inconclusive, Cruzain noTriton 11% and 2A StopGo -5%.
For CCN=C(NCC)SC1CC(=O)N(c2ccccc2)C1=O (centres undefined) the results were Marburg entry inh 13%, SARS PLpro yeast -6%, RE007 growth inh -5%, NS1 function inh 4%, Cruzain Triton 0.0%, LASV entry inh 6%, Cruzain noTriton -8% and 2A StopGo 7%.
Screening CCn1c(O)c(C=NCCN2CCOCC2)c(=O)n(CC)c1=S returned SARS PLpro yeast -4%, RE007 growth inh 4%, NS1 function inh -6% and 2A StopGo -18%.
Screening O=C(N/N=C/c1ccc(O)cc1)/C(=C/c1ccccc1)CCO returned Marburg entry inh 7%, SARS PLpro yeast -8%, RE007 growth inh 4%, NS1 function inh -2%, Cruzain Triton -2.8%, LASV entry inh -4%, Cruzain noTriton -1% and 2A StopGo 4%.
Screening Cc1[nH]n(-c2ccccc2)c(=O)c1N=Nc1cccc([N+](=O)[O-])c1 returned Marburg entry inh inconclusive, SARS PLpro yeast 5%, RE007 growth inh 11%, NS1 function inh 26%, LASV entry inh 13%[46.1 µM] and 2A StopGo -7%.
For Cc1cccc(C(C)C)c1NC(=O)C(C)OC(=O)Cc1n[nH]c(=O)c2ccccc12 (centres undefined) the results were Marburg entry inh inconclusive, SARS PLpro yeast 1%, RE007 growth inh -10%, LASV entry inh 5% and 2A StopGo -23%.
C=CCOn1c(=O)c(-c2ccc(OCC)cc2)[n+]([O-])c2ccccc21 was read as Marburg entry inh 5%, SARS PLpro yeast -2%, RE007 growth inh -3%, NS1 function inh 3%, LASV entry inh 26% and 2A StopGo 30%.
CCc1ccc(NC(=O)c2sc3nc(C)nc(N4CCN(c5ccccn5)CC4)c3c2C)cc1 was read as Marburg entry inh 10µM*, SARS PLpro yeast 2%, RE007 growth inh -2%, NS1 function inh -1%, LASV entry inh 12%[46.1 µM] and 2A StopGo 2.2µM*.
COC(=O)c1c(NC(=O)CN2C(=O)c3ccccc3C2=O)sc(Cc2ccc3c(c2)OCO3)c1C was read as Marburg entry inh 3%, SARS PLpro yeast 3%, RE007 growth inh 7%, NS1 function inh 10µM*, Cruzain Triton -1.5%, LASV entry inh 1%, Cruzain noTriton 10µM* and 2A StopGo -7%.
Screening COC(=O)c1ccsc1NC(=O)c1ccco1 returned SARS PLpro yeast -3%, RE007 growth inh -4%, NS1 function inh 1% and 2A StopGo 14%.
O=C(NCc1ccccc1)C1Cc2ccccc2CN1C(=O)c1ccco1 (centres undefined) was read as Marburg entry inh -17%[46.1 µM], SARS PLpro yeast -6%, RE007 growth inh -11%, LASV entry inh -5%[46.1 µM] and 2A StopGo 10%.
For CCOC(=O)n1c(O)c(N=NC(N)=S)c2cc(C)ccc21 the results were SARS PLpro yeast 0%, RE007 growth inh 8%, NS1 function inh 3% and 2A StopGo -17%.
For CCN(CC)CCCNC(=O)CCn1nc(-c2ccc(Cl)cc2)ccc1=O the results were Marburg entry inh -12%, SARS PLpro yeast -2%, RE007 growth inh 9%, NS1 function inh 2%, LASV entry inh 23% and 2A StopGo -3%.
`O=C(CN(C(=O)CCC(=O)Nc1ccccn1)c1cccc(F)c1)NCc1ccco1` gave Marburg entry inh -10%[46.1 µM], SARS PLpro yeast 2%, RE007 growth inh -2%, NS1 function inh 8%, LASV entry inh -4%[46.1 µM] and 2A StopGo 12%.
Screening CO/N=C(\C(=O)N[C@@H]1C(=O)N2C(C(=O)O)=C(CSc3nc(=O)c(O)nn3C)CSC12)c1csc(N)n1 (some centres undefined) returned Marburg entry inh 17%&33%, NS1 function inh -1%, Cruzain Triton -15%, LASV entry inh 0% and Cruzain noTriton 9%.
For C=C1c2cc3c(cc2NC(=S)N1Cc1ccccc1)OCO3 the results were Marburg entry inh 1%[14.2 µM], SARS PLpro yeast -1%, RE007 growth inh -16%, NS1 function inh 12%, LASV entry inh inconclusive and 2A StopGo 2%.
For CCOc1ccc2oc(=O)cc(CN3CCN(C(=O)c4ccc(F)cc4)CC3)c2c1 the results were Marburg entry inh -2%[46.1 µM], Cruzain Triton -4.0%, LASV entry inh 12%[46.1 µM], Cruzain noTriton 2% and 2A StopGo -20%.
COc1ccc(S(=O)(=O)NC(C)C(=O)Nc2ccccc2)cc1Cl (centres undefined) was read as Marburg entry inh -11%, SARS PLpro yeast 4%, RE007 growth inh -6%, NS1 function inh 1%, LASV entry inh inconclusive and 2A StopGo 7%.
Screening O=C(c1ccccc1)N1CCN(C(=S)NCc2ccco2)CC1 returned Marburg entry inh 0%[46.1 µM], SARS PLpro yeast 2%, RE007 growth inh -7%, LASV entry inh 12% and 2A StopGo -2%.
Screening CCc1ccc(NC(=O)[C@H](C)NC(=O)C2CCN(C(=O)[C@@H](N)C(C)C)CC2)cc1 returned SARS PLpro yeast 0%, RE007 growth inh 4%, NS1 function inh 8% and 2A StopGo 4%.
`COc1ccc(CN2CCNC(=O)C2CC(=O)N2CCCCO2)c(OC)c1` (centres undefined) gave Marburg entry inh 29%[46.1 µM], SARS PLpro yeast 0%, RE007 growth inh 10%, NS1 function inh 3%, LASV entry inh -3% and 2A StopGo 9%.
`COCC(=O)Nc1nc2ccc(S(C)(=O)=O)cc2s1` gave Marburg entry inh 17%, SARS PLpro yeast -6%, RE007 growth inh 11%, NS1 function inh -18%, Cruzain Triton 1.7%, LASV entry inh 19%, Cruzain noTriton -16% and 2A StopGo 62%[activator].
CCc1ccccc1NC(=O)Cn1cc(C(=O)c2ccc(Cl)cc2)c(=O)c2ccc(C)nc21 was read as Cruzain Triton 0.3%, LASV entry inh 19%[46.1 µM], Cruzain noTriton 0% and 2A StopGo -10%.
Screening CCOc1cc(/C=N/NC(=O)Cc2ccc(C(F)(F)F)cc2[N+](=O)[O-])ccc1O returned Marburg entry inh 2%, SARS PLpro yeast -19%, RE007 growth inh 1%, NS1 function inh 7%, Cruzain Triton -7.5%, LASV entry inh -2%, Cruzain noTriton 8% and 2A StopGo -11%.
For CCc1ccc(C(=O)NNC(=O)CC2OC(=O)c3ccccc32)cc1 (centres undefined) the results were Marburg entry inh 1%, SARS PLpro yeast -3%, RE007 growth inh -1%, LASV entry inh -3%[46.1 µM] and 2A StopGo 67%[activator].
Screening CCC(=O)Nc1ccc2c(c1)nc1n2CCN(C2CCCCC2)C1 returned Marburg entry inh 19%[46.1 µM], SARS PLpro yeast 2%, RE007 growth inh -18%, NS1 function inh 6% and 2A StopGo 57%[activator].
For O=C(OCc1cc(=O)n2cc(Br)ccc2n1)c1ccc(Cl)c(S(=O)(=O)NCc2ccccc2)c1 the results were Marburg entry inh 11%, SARS PLpro yeast 18%, RE007 growth inh 6%, NS1 function inh 2%, Cruzain Triton -1.6%, LASV entry inh 2%, Cruzain noTriton inconclusive and 2A StopGo 0%.
For CCCCc1ccc(-n2nnnc2SCC(=O)Nc2cc(OC)c([N+](=O)[O-])cc2C)cc1 the results were Marburg entry inh -19%, SARS PLpro yeast 6%, RE007 growth inh -4%, NS1 function inh 10%, Cruzain Triton -8.3%, LASV entry inh inconclusive, Cruzain noTriton -11% and 2A StopGo inconclusive.
CN(C(=O)c1cn2ccccc2n1)c1c(N)n(Cc2ccccc2)c(=O)[nH]c1=O was read as Marburg entry inh 11%, SARS PLpro yeast 1%, RE007 growth inh -5%, LASV entry inh 6% and 2A StopGo 0%.
For CCOC(=O)CCCN1C(=O)CCn2nc(-c3cn(C)c4ccccc34)cc21 the results were Marburg entry inh inconclusive, Cruzain Triton -7.3%, LASV entry inh -19%[46.1 µM], Cruzain noTriton inconclusive and 2A StopGo 0%.
O=[N+]([O-])c1ccc(Cl)c(S(=O)(=O)NC2=NCCC2)c1 was read as Marburg entry inh 15%[46.1 µM], SARS PLpro yeast 2%, RE007 growth inh -4%, LASV entry inh -8% and 2A StopGo -18%.
